DT40 TDP1 CPT: growth inhibition of DT40 Tdp1-/-;hTDP1 cells with camptothecin (screen for TDP1 inhibitors); chicken DT40 Tdp1-/-;hTDP1 cells + 20 nM CPT, ATP luminescence, 48 h; hit rate 12% among 420,000; Potency, µM (doses to about 46.2 µM), inactives show top-dose activity change, negative = growth inhibition, actives largely listed as inhibitors; further: nearly all actives have a fitted effect of over 55% in size
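Chicken DT40 Tdp1-/- cells complemented with human TDP1, 400 cells/well, exposed to compounds plus 20 nM camptothecin for at least 48 h at 37 C; viability read as ATP content by CellTiter-Glo luminescence.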
FEN1 inhibitor: human FEN1 inhibition; P39748; Recombinant FEN1 flap cleavage, fluorescence, 15 min; Potency, µM (titrated, usually from 114 µM), without a hit: at the top dose activity change, negative = inhibition, hits mostly inhibitors; hit rate 0.35% among 390,000; AID 588795; further: nearly all actives have a fitted effect of over 65% in size
Target sequence (P39748 whole entry, looked up): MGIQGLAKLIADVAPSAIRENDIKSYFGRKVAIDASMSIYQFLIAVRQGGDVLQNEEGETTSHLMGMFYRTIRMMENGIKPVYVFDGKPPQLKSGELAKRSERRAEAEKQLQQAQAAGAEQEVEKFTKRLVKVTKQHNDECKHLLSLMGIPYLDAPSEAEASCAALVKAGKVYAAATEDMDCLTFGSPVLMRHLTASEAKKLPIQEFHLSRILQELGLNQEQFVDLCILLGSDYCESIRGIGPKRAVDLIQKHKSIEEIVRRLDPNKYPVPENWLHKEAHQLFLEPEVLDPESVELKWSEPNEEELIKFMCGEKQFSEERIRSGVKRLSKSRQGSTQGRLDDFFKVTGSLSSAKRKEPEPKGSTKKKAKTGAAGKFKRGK
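Reaction started by adding substrate (50 nM final) to 10 nM enzyme after 15 min room-temperature compound preincubation. Reads at 0 and 15 min, with data normalized and fitted to a four-parameter Hill equation.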
* marks the source's active call; other numbers are inactive results; u = inconclusive; & = joins results of further samples. The call rests on the fitted dose curve; in most records, active means well fitted curve in the direction sought with a large enough effect; inconclusive means small, poorly fitted or top-dose-only effect, or another doubt; inactive means no such curve, though single readings can be large; an effect the other way counts as inactive or inconclusive. On the % scale 0 is the no-effect control and ±100 the full control effect; potency means the concentration at half of the fitted maximal effect. A portion of the library; most or all hits stand in other tables.

SMILES	DT40 TDP1 CPT	FEN1 inhibitor
CCOc1ccc(CNC(=O)CCC(=O)N2CC(C)Sc3ccccc32)cc1 (stereo not given)	u	-5%
CC(=O)OCC[C@H](NS(=O)(=O)OCC(Cl)(Cl)Cl)c1ccccc1	-7%	4%
CS(=O)(=O)N1CCc2cc(C(=O)O)ccc21	-6%	0%
COc1ccc(N(C)S(=O)(=O)c2ccc3c(c2)CCC(=O)N3)cc1	-8%	-5%
COC(=O)/C(=C\Nc1ccc(Cl)cc1Cl)NC(=O)c1ccc(OC)cc1	3.7µM*	-4%
CC(=O)c1ccc(NC(=O)C(C)OC(=O)c2ccc3c(c2)nc(C)n3-c2ccccc2)cc1 (stereo not given)	4%	-5%
Cn1c(NC(=O)c2ccccc2C(F)(F)F)cc(=O)n(C)c1=O	-16%	1%
COC(=O)c1sc2cc(C(F)(F)F)cnc2c1-c1ccccc1	2%	2%
CCOC(=O)C1CCCN(Cc2ccccc2OCC)C1 (stereo not given)	-2%	-2%
COc1cccc(C(=O)N/N=C2\SCC(=O)N2Cc2ccc3c(c2)OCO3)c1	-2%	-8%
COC(=O)c1ccccc1NC(=O)Cn1cc(Br)cn1	-2%	10%
COCC(=O)NCc1ccc2c(c1)cc(C)n2C	9%	-10%
O=C(O)c1ccc(S(=O)(=O)N2CCC(c3nc(-c4ccccc4Cl)no3)CC2)cc1	-10%	-3%
COC(=O)CSc1nc(Cc2ccccc2)nc2ccccc12	-16%	2%
N#Cc1ccc(OCC(=O)OCC(=O)c2ccccc2)cc1	4%	9%
OCCCC1CCCN(Cc2cn[nH]c2-c2ccc(F)cc2F)C1 (stereo not given)	-3%	-18%
Cc1ccc(C)c(C(=O)CSc2nnnn2-c2cccnc2)c1	-10%	5%
CCOC(=O)C/C(C)=N/NC(=O)C1CC1(c1ccccc1)c1ccccc1 (stereo not given)	-18%	0%
Cc1cccc(NC2SC(=O)NC2=O)c1 (stereo not given)	8%	-9%
Cc1nc2sc(C(=O)O)c(N)c2c2c1COC(C)(C)C2	-5%	-1%
O=C(Nc1cccc(F)c1)C1CCN(S(=O)(=O)c2cnc[nH]2)CC1	-1%	3%
CC(C)[C@@H](C(=O)N1CCN(Cc2ccc3c(c2)OCO3)CC1)n1nnc2ccccc2c1=O	21µM*	10%
Cc1ccc(OCC(=O)N/N=C/c2ccccc2)c([N+](=O)[O-])c1	9%	-11%
COc1ccccc1OCC(O)Cn1c(Br)nc2c1c(=O)[nH]c(=O)n2C (stereo not given)	u	9%

Entries of single compounds as entered above. Order of screens: DT40 TDP1 CPT, FEN1 inhibitor
N#Cc1ccc(OCC(=O)OCC(=O)c2ccccc2)cc1 as listed: 4%, 9%
Cc1ccc(OCC(=O)N/N=C/c2ccccc2)c([N+](=O)[O-])c1 as listed: 9%, -11%
CCOC(=O)C/C(C)=N/NC(=O)C1CC1(c1ccccc1)c1ccccc1 (stereo not given) as listed: -18%, 0%
CC(C)[C@@H](C(=O)N1CCN(Cc2ccc3c(c2)OCO3)CC1)n1nnc2ccccc2c1=O as listed: 21µM*, 10%
O=C(Nc1cccc(F)c1)C1CCN(S(=O)(=O)c2cnc[nH]2)CC1 as listed: -1%, 3%

The list goes on:
SMILES	DT40 TDP1 CPT	FEN1 inhibitor
Cc1ccc(N2CC(NC(=O)N3CCN(C(=O)c4ccco4)CC3)CC2=O)cc1 (stereo not given)	6%	0%
Cn1c(=O)c2c(nc(NCCNC(=O)c3ccco3)n2Cc2ccccc2F)n(C)c1=O	u	-7%
COc1ccc(NS(=O)(=O)c2ccc(N3CCOCC3)c(NC(=O)c3ccccc3Br)c2)cc1	u	-4%
Cc1ccc(OCC(=O)NCc2ccc3c(c2)OCO3)c([N+](=O)[O-])n1	u	7%
COC(=O)c1ccc(/C=C2\Oc3ccccc3NC2=O)cc1	-13%	6%
COc1cc(OC)cc(C(=O)Nc2ccc3nc(N4CCCCC4)cc(C)c3c2)c1	15µM*	-16%
O=C(CCCN1C(=O)/C(=C/c2ccccc2Cl)SC1=S)Nc1ccccn1	u	-9%
Cc1cc(C)n2nc(SCC(=O)c3cc(C)n(-c4cc(C)on4)c3C)nc2n1	10µM*	-9%
CCOc1ccccc1NC(=O)N1CCCn2nc(C)cc21	u	5%
c1ccc2c(Oc3ccc4c(c3)OCO4)nncc2c1	u	2%
CCOC(=O)CC(=O)CSc1nc2ccccc2c(=O)n1CCc1ccc(S(N)(=O)=O)cc1	u	-5%
COc1ccc(C2=Nc3ccc(C)cc3C(c3ccccc3)N2CC(=O)NN)cc1 (stereo not given)	-19%	17%

Structural class, the entries above containing a furan ring, fused or not (two)
SMILES	DT40 TDP1 CPT	FEN1 inhibitor
Cc1ccc(N2CC(NC(=O)N3CCN(C(=O)c4ccco4)CC3)CC2=O)cc1 (stereo not given)	6%	0%
Cn1c(=O)c2c(nc(NCCNC(=O)c3ccco3)n2Cc2ccccc2F)n(C)c1=O	u	-7%

Returning to the listing, repeating the 2 entries before the break.
SMILES	DT40 TDP1 CPT	FEN1 inhibitor
CCOC(=O)CC(=O)CSc1nc2ccccc2c(=O)n1CCc1ccc(S(N)(=O)=O)cc1	u	-5%
COc1ccc(C2=Nc3ccc(C)cc3C(c3ccccc3)N2CC(=O)NN)cc1 (stereo not given)	-19%	17%
COc1cccc(-c2nc(SCC(=O)NC3CCCC3)c(-c3ccccc3)[nH]2)c1	u	4%
CCCN(CCC)C(=O)c1ccc2c(c1)S(=O)(=O)c1ccccc1C2=O	u	-7%
CCC1(C)Cc2ccccc2-c2nc(NCCO)n(-c3ccccc3)c(=O)c21 (stereo not given)	4.1µM*	0%
Cc1ccnc(NC(=O)CC(NC(=O)c2ccccc2Cl)c2ccccc2)c1 (stereo not given)	0%	-3%
O=C(Nc1ccc2c(c1)OCO2)c1ccc(S(=O)(=O)N2CCCC2)cc1	5%	2%
O=C(CCN1CCC(c2ccccc2)C1)c1cccs1 (stereo not given)	1.8µM*	-5%
CCOc1ccc(C(=O)c2cc([N+](=O)[O-])ccc2N2CCOCC2)cc1	0.13µM*	0%
COCCn1c(C)cc(/C=C2/SC(=O)N(CC(=O)N3CCCC3)C2=O)c1C	14%	3%
CCOc1ccc(CCNCc2c(C(=O)O)n(Cc3ccc(C)cc3)c3cc(OC)ccc23)cc1	u	1%
O=C(CN1C(=O)c2cccc3cccc1c23)NC1CCCCC1	11%	3%
CCOC(=O)c1c(NC(=O)c2ccco2)sc2c1CCCC2	u	2%
Cc1ccc2[nH]c3c(NCCN4CCOCC4)ncnc3c2c1	u	-4%
CCOC(=O)Cc1csc2nc(-c3ccccc3)nn12	-11%	-3%
CCCN1C(=O)C(Cc2nc3ccccc3c(=O)n2-c2ccc(OC)cc2)c2cc(C)ccc21 (stereo not given)	9.2µM*	-18%
CCOc1ccc(CCNC(=O)CCc2nc3ccccc3[nH]2)cc1OCC	2%	-4%
C/C(=N/OC(=O)c1cccc(Cl)c1)c1nccs1	-2%	-2%
O=C(CSc1ccc(-c2ccccn2)nn1)NCc1ccc(Cl)cc1	u	11%
CCOC(=O)C1(CCCc2ccccc2)CCN(C(=O)CCN2CCCCC2=O)CC1	u	-3%
CCOC(=O)c1cnc(SC)nc1Nc1cccc2ccccc12	u	10%
CN=c1sc2ccccc2n1CC(O)COc1ccccc1 (stereo not given)	u	-5%
CCOC(=O)N1CCN(C(=O)CCc2ccc(S(=O)(=O)NC(C)C)cc2)CC1	9%	-2%
CCn1nnnc1SCC(=O)N1c2ccccc2NC(=O)CC1C (stereo not given)	-3%	-17%
COc1cc(C)ccc1OCc1cc(C(=O)N(Cc2nccn2C)C(C)C)no1	-17%	-3%
Nc1nonc1-n1nnc(C(=O)N/N=C/c2ccc(Cl)cc2Cl)c1CN1CCCCC1	u	1%
Cn1c(CSc2ncccn2)nnc1SCC(=O)N1CCCCC1	-7%	-16%
O=C1CN(C(=O)CSc2ccccn2)c2ccccc2N1	5%	-20%
CCN1C(=O)c2ccccc2Sc2ccc(NC(=O)c3ccc(Cl)cc3)cc21	0%	17%
Cc1cccc(NC(=O)CSc2nc3ccccc3c(=O)n2C)c1	u	10%
COc1ccc(NC(=O)c2cccnc2)cc1OCC(C)C	27%	0%
CC(=O)Nc1ccc2oc(C)nc2c1	11%	3%
COc1cc([N+](=O)[O-])ccc1NC(=O)c1nc2ccccc2n(C)c1=O	2%	15%
NNc1nc2c(F)cccc2s1	u	-20%
CCOc1ccc(S(=O)(=O)N2CCN(C(=O)c3cc([N+](=O)[O-])ccc3N3CCOCC3)CC2)cc1	-15%	-12%
CCn1nc(C(=O)NNC(=O)COc2ccc(OC)cc2)c2ccccc2c1=O	1%	-1%
O=C(NCc1ccccn1)c1ccc(N2CCCC2=O)cc1	-2%	0%
Cc1nn(C(C)C(=O)N2CCc3ccccc3C2)c(=O)c2cc3occc3n12 (stereo not given)	-13%	-7%
C/C(=N\NC(=O)c1cc(Br)ccc1O)c1ccccn1	3.3µM*	-2%
O=C(O)[C@@H]1Cc2c([nH]c3ccccc23)C2CCC(=O)N21 (stereo not given in full)	-3%	-9%
CCOc1ccc(S(=O)(=O)n2cc(-c3ccccc3)c(N)n2)cc1	-6%	-1%
O=S(=O)(Nc1ccc(S(=O)(=O)Nc2nccs2)cc1)c1ccc(Br)cc1	-9%	15%
O=C(CCCc1ccccc1)N=C1SC2CS(=O)(=O)CC2N1c1ccccc1F (stereo not given)	4%	-5%
COC(=O)C1CCN(C(=O)c2ccc(Cl)c(S(=O)(=O)NCc3cccnc3)c2)CC1	-5%	-11%
COc1cccc2cc(C(=O)Nc3ccc(S(=O)(=O)NCC4CCCO4)cc3)c(=O)oc12 (stereo not given)	-6%	4%
CSc1nc2nccc(-c3ccc(Oc4ccccc4)cc3)n2n1	u	-8%
COc1ccc(-c2nnc(SCC(=O)NC3CCCCC3)o2)cc1OC	21µM*	-3%
COc1ccc(-n2c(=S)[nH]c3cc(C(=O)NCCCN4CCCC4=O)ccc3c2=O)cc1OC	-4%	-2%
O=C(CNc1cccc(Cl)c1)c1ccc(Br)cc1	u	-3%
CC1(C)CC(CCC(=O)Nc2ccc(S(N)(=O)=O)cc2)C(=O)O1 (stereo not given)	13%	-3%
COC(=O)C1CN(C(=O)COc2ccc(C)c(C)c2)c2ccccc2O1 (stereo not given)	3%	-18%
CCCOc1ccc(-c2nnc(-c3ccco3)o2)cc1	-12%	-4%
O=C(CSc1nc(Nc2ccccc2)nc(N2CCOCC2)n1)N1CCCC1	u	-1%
Cc1ccc(-c2cnc3n2CCCCC3)cc1	u	-1%
NC(=O)C1CCN(C(=O)CCC(=O)c2ccc(Br)cc2)CC1	10%	-6%
O=C(Nc1c2c(nn1-c1ccc(Cl)cc1)CS(=O)(=O)C2)C1CC1	-1%	-2%
Cc1cccc(N2CCN(C(=O)c3ccncc3)CC2)c1C	21µM*	-4%
CCNc1nc(NCC)nc(N(CC)C(N)=S)n1	3%	-6%
O=[N+]([O-])c1ccc(S(=O)(=O)N/N=C/c2ccsc2)cc1	-13%	-4%
CCC(C)NC(=O)c1cn(CCOC)c(=O)c2c1c1ccccc1n2C (stereo not given)	-3%	8%
Cc1ccccc1C(=O)c1cccn1CC(=O)NCc1ccc2c(c1)OCO2	-8%	3%
O=C(CN1C(=O)COc2ccccc21)Nc1ccccc1F	1%	8%
The results go on.
SMILES	DT40 TDP1 CPT	FEN1 inhibitor
CCOc1ccccc1C(=O)NC(C(=O)NCCc1ccccn1)C(C)C (stereo not given)	u	-2%
COc1ccccc1NC(=O)COC(=O)CCn1c(C)csc1=O	15%	-2%
CN(C)CCN(C(=O)c1ccc2c(c1)OCCO2)c1nc2c(Cl)cccc2s1	-19%	0%
O=C(CCCN1C(=O)/C(=C\c2cccs2)SC1=S)Nc1ccccn1	u	-3%
Cc1ccc(-c2nnc(Nc3ccc(CC(N)=O)cc3)c3ccccc23)cc1S(=O)(=O)NCC1CCCO1 (stereo not given)	1%	-21%
CC(=O)OC1CC[C@@]2(C)C(CCC3C2CC(=O)[C@@]2(C)C3CC3CC(C)=CC(=O)C32)C1 (stereo not given in full)	18µM*	-6%
O=C(c1ccco1)N1CCN(c2ncnc3c2cnn3-c2ccccc2)CC1	u	-1%
CCOc1ccc(CN(C)CC(=O)Nc2ccc([N+](=O)[O-])cc2Cl)cc1	u	-3%
CCOc1cc(C(=S)N2CCOCC2)ccc1OC(=O)c1ccccc1	u	-6%
CCCCC(=O)NNC(=S)NC(=O)c1ccc(C)cc1	-104%	1%
CCOC(=O)c1[nH]c2ccccc2c1NC(=O)CC	-18%	6%
Nc1c(C(=O)NCc2ccco2)c2nc3ccccc3nc2n1CCc1ccc(F)cc1	21µM*	-20%
CN(C)C(=O)CSc1nnc(Cc2ccccc2)n1Cc1ccco1	8%	0%
CCc1nc(SCc2cc(=O)c3cc(C)ccc3[nH]2)n[nH]1	6%	-5%
CN1CCC(N(C)C(=O)CNC(=O)c2ccc(C(C)(C)C)cc2)CC1	-14%	-1%
CCN(CC)CCNC(=O)c1cc2c(s1)-c1ccccc1SC2	23µM*	-1%
COC(=O)c1cc(NC(=O)Cc2coc3cc(OC)ccc23)cc(C(=O)OC)c1	23µM*	-3%
CC1=CS/C(=C(/C#N)C(=O)N2CCCCC2)N1c1ccccc1	-2%	-1%
CCOC(=O)C1CCCN(CCCc2ccccc2)C1 (stereo not given)	1%&0%	21%&22%
CC(C)(C)OC(=O)NN1CC(=O)N2Cc3ccccc3C[C@@H]2C1=O	-2%	37%
